VACV Venus inh: inhibitors of vaccinia virus (Venus reporter). Vaccinia virus Venus reporter expression, fluorescence. Potency, µM (series often up to 36.5 µM), without a hit: at the highest dose activity change, negative = inhibition, hits mostly inhibitors. 330,000 compounds, 0.46% hits. AID 720580; active means well fitted inhibition curve with a large enough effect; inconclusive means small, poorly fitted or top-dose-only effect; inactive means no such curve, though single readings can be large or run the other way; tested in A549 cells; also: nearly all actives have a fitted effect of over 30% in size; inactives centre near -10
VACV mCherry inh: vaccinia inhibition (mCherry reporter); Vaccinia virus mCherry reporter infection, fluorescence; about a quarter of the inactives have no number; Potency, µM (titrated, usually from 36.5 µM), for the others: at the top dose activity change, negative = inhibition, hits mostly inhibitors; 310,000 compounds, 0.63% hits; active = well fitted inhibition curve with a large enough effect; inconclusive = small, poorly fitted or top-dose-only effect; inactive = no such curve, though single readings can be large or run the other way; tested in A549 cells; also: nearly all actives have a fitted effect of over 35% in size; inactives centre near -10
Numbers without * were called inactive; i = inactive; ? = inconclusive; / = not tested or not shown; & = joins results of further samples; [ ] = dose if it differs, or a comment. % is scaled to controls: 0 for no effect and ±100 for the full control effect; potency is read from the fitted curve at half-maximal effect.

SMILES	VACV Venus inh	VACV mCherry inh
CC1(C)O[C@H]2CC(=O)OC[C@]23[C@H]2CC[C@@]4(C)[C@H](c5ccoc5)OC(=O)[C@H]5O[C@]54[C@]2(C)C(=O)C[C@@H]13	-4%	-3%
CC[N+](C)(CC)CCOC(=O)C(O)(c1ccccc1)C1CCCCC1 (stereo not drawn)	-12%	i
CCOc1ccc(C(=O)OCCN(CC)CC)cc1	-13%	/
C[C@]12CCC(=O)C=C1CC[C@@H]1[C@@H]2CC[C@@]2(C)[C@H]1CC[C@]2(O)C(=O)CO	-14%	-26%
Oc1ccc(/C=C/c2cc(O)cc(O)c2)cc1	-8%	?
CCCCCCCCCCCCCCC[C@H](O)[C@H](N)CO	-9%	-3%
CCC(C)n1ncn(-c2ccc(N3CCN(c4ccc(OCC5COC(Cn6cncn6)(c6ccc(Cl)cc6Cl)O5)cc4)CC3)cc2)c1=O (stereo not drawn)	?	-9%
O=C(NCc1ccco1)c1ccc2c(c1)N(Cc1cccc(Cl)c1)C(=O)c1ccccc1S2=O (stereo not drawn)	-9%	-13%
CC(COc1ccccc1)NC(C)C(O)c1ccc(O)cc1 (stereo not drawn)	-16%&-3%	-20%&-14%
COc1ccc(CCNc2nc(SCc3ccccc3Cl)nc3ccccc23)cc1OC	-18%	-13%
COc1ccccc1N1CCN(CCCNc2cc(=O)n(C)c(=O)n2C)CC1	-16%&-9%	-5%&-17%
c1ccc(CN(CC2=NCCN2)c2ccccc2)cc1	-10%&-14%&-12%	-11%&-17%
CCN(CC)CCOC(=O)C1(c2ccccc2)CCCC1	-11%	i
CC(=O)C1CCC2C3CC(C)C4=CC(=O)CC[C@@]4(C)C3C(O)C[C@@]12C (stereo partly drawn)	-10%	-14%
O=C(c1ccc(F)cc1)C1CCN(CCn2c(=O)[nH]c3ccccc3c2=O)CC1	-19%&-18%&-11%	-1%&-3%
O=c1cc(-c2ccc(O)cc2)oc2cc(OC3OC(CO)C(O)C(O)[C@H]3O[C@@H]3OC[C@@](O)(CO)C3O)cc(O)c12 (stereo partly drawn)	2%	25%
CCOc1ccccc1C(N)=O	-6%	i
NC(=O)c1cccc(-c2cc(Nc3ccc(OC(F)(F)F)cc3)ncn2)c1	?	i
Cc1nc2ccccn2c(=O)c1CCN1CCC(C(=O)c2ccc(F)cc2)CC1	-9%&-11%	i
C1CCC(C(CC2CCCCN2)C2CCCCC2)CC1 (stereo not drawn)	13µM*	11µM*

3 records picked at random from the list so far, as already listed:
SMILES	VACV Venus inh	VACV mCherry inh
CC(=O)C1CCC2C3CC(C)C4=CC(=O)CC[C@@]4(C)C3C(O)C[C@@]12C (stereo partly drawn)	-10%	-14%
CCC(C)n1ncn(-c2ccc(N3CCN(c4ccc(OCC5COC(Cn6cncn6)(c6ccc(Cl)cc6Cl)O5)cc4)CC3)cc2)c1=O (stereo not drawn)	?	-9%
COc1ccc(CCNc2nc(SCc3ccccc3Cl)nc3ccccc23)cc1OC	-18%	-13%

More structures
SMILES	VACV Venus inh	VACV mCherry inh
CCC(C)[C@@H](N)C(=O)O (stereo partly drawn)	-10%	-3%
CCN1CCN(CCCNC(=O)c2cc3c(s2)-c2c(C)cccc2OC3)CC1	?	?
COC(=O)C1=CO[C@@H](O[C@H]2OC(CO)C(O)C(O)C2O)C2C1CC(O)C2C (stereo partly drawn)	3%	-5%
C[C@@H](N)C1CCC(C(=O)Nc2ccncc2)CC1 (stereo partly drawn)	-6%[60.7 µM]	-22%
CCCNC(=O)C1CCC(Cn2c(=O)c3sccc3n(CC(=O)NCc3ccccc3)c2=O)CC1 (stereo not drawn)	-7%	-10%
O=S(=O)(c1cccc2cnccc12)N1CCCNCC1	-23%&-13%&-28%	-8%&-22%&-24%
c1ccc(CC2=NCCN2)cc1	-13%&-14%	i
CC(=O)c1ccc2c(c1)N(CCCN(C)C)c1ccccc1S2	?	?
Cc1ccc(C)c(NC(=O)Cn2cc(C(=O)c3ccco3)c3ccccc32)c1	-16%	-13%
COc1ccc(C(=O)CC(=O)c2ccc(C(C)(C)C)cc2)cc1	-9%&-10%	-20%
COc1cc2c(c(OC)c1OC)-c1c(cc3c(c1OC)OCO3)[C@@H](OC(C)=O)[C@H](C)[C@H](C)C2	-15%	-5%
O=C(NCCc1c[nH]c2ccccc12)c1cccnc1	-9%	-19%
COc1ccc(CNC(=O)C2CCCN(c3nnc(C)c4c(C)n(-c5ccc(C)cc5)nc34)C2)cc1 (stereo not drawn)	?	?
O=C(CCN1CCC(c2ccccc2)C1)c1ccc2c(c1)OCCO2 (stereo not drawn)	-15%	i
CCOCCCNC(=O)C(=O)Nc1c2c(nn1-c1ccc(OC)cc1)CSC2	-5%	2%
C=CC1=C(C(=O)O)N2C(=O)[C@@H](NC(=O)/C(=N\O)c3csc(N)n3)[C@H]2SC1 (stereo in doubt)	-15%&-1%	0%
COC(=O)c1ccc(O)cc1	-3%	-12%
CCc1nnc(NC(=O)CSc2nc3c([nH]c4ccccc43)c(=O)n2-c2ccc(OC)cc2)s1	-11%	-11%
CC12CCC(CC1)C(C)(C)O2	-8%&0%	-1%&12%
COc1cc(O)c2c(=O)cc(-c3ccc(OC)c(-c4c(O)cc(O)c5c(=O)cc(-c6ccc(O)cc6)oc45)c3)oc2c1	?	?
CN1CCN(CCC(=O)N2c3ccccc3Sc3ccc(C(F)(F)F)cc32)CC1	-27%	-19%
CN1CCN(C(c2ccccc2)c2ccccc2)CC1	-17%&-26%	?
O=C(CC1N=C2c3ccccc3N=C(SCc3ccc(F)cc3)N2C1=O)NC1CCCCC1 (stereo not drawn)	-3%	-17%
CC(=O)O[C@@]1(C(C)=O)CCC2C3C=C(Cl)C4=CC(=O)C5CC5[C@@]4(C)C3CC[C@]21C (stereo partly drawn)	-23%	?
CC(=O)c1ccc(S(=O)(=O)NC(=O)NC2CCCCC2)cc1	-10%	-12%
CCOc1ccc(NC(=O)Cn2cc(C(=O)c3ccco3)c3ccccc32)cc1	-1%	0%
COc1ccc(-n2ccn(CC(=O)Nc3ccc(C)c(C)c3)c(=O)c2=O)cc1OC	0%	2%
CCOC(=O)N1CCc2c(sc3c2c(=O)n(Cc2ccccc2)c(=O)n3CC(=O)Nc2ccc(F)cc2)C1	-13%	-17%
O=C1c2ccc(O)c(O)c2C(=O)c2c(O)ccc(O)c21	70%[activator]	46%[activator]
OC(C#CCN1CCCC1)(c1ccccc1)c1ccccc1	-7%	i
CC(=O)Nc1ccc(C(=O)O)cc1	-4%	-10%
CCCCCCO	-9%	i
Cc1cc(-c2ccccc2)nnc1NCCN1CCOCC1	-4%&-10%	-17%
NC(=O)c1cn(Cc2c(F)cccc2F)nn1	-4%	-13%
O=C1c2c(O)cccc2[C@H]([C@@H]2O[C@H](CO)[C@@H](O)[C@H](O)[C@H]2O)c2cc(CO)cc(O)c21	-27%	i
Cc1[nH]n2c(=O)cc(-c3ccc(Cl)cc3)nc2c1-c1ccccc1	?	8.9µM*
CC(=O)NC(Cc1ccccc1)C(=O)O (stereo not drawn)	6%	-8%
CCOC(=O)c1ccc(N)cc1	-16%&-3%	-18%
CN1CCOC(c2ccccc2)c2ccccc2C1 (stereo not drawn)	-14%&-10%	-8%
CC(=O)OCC1=C[C@@H]2OC(=O)C3=CO[C@@H](O[C@@H]4O[C@H](CO)[C@@H](O)[C@H](O)[C@H]4O)[C@H]1[C@@H]32	35%[activator]	18%

Structures shown so far that contain a thiophene ring, fused or not, in the order listed:
SMILES	VACV Venus inh	VACV mCherry inh
CCN1CCN(CCCNC(=O)c2cc3c(s2)-c2c(C)cccc2OC3)CC1	?	?
CCCNC(=O)C1CCC(Cn2c(=O)c3sccc3n(CC(=O)NCc3ccccc3)c2=O)CC1 (stereo not drawn)	-7%	-10%
CCOC(=O)N1CCc2c(sc3c2c(=O)n(Cc2ccccc2)c(=O)n3CC(=O)Nc2ccc(F)cc2)C1	-13%	-17%

Profiles, looked up by structure. Order of values: VACV Venus inh, VACV mCherry inh
`CC(=O)OCC1=C[C@@H]2OC(=O)C3=CO[C@@H](O[C@@H]4O[C@H](CO)[C@@H](O)[C@H](O)[C@H]4O)[C@H]1[C@@H]32` is listed as 35%[activator], 18%
`CN1CCN(C(c2ccccc2)c2ccccc2)CC1` is listed as -17%&-26%, ?
`OC(C#CCN1CCCC1)(c1ccccc1)c1ccccc1` is listed as -7%, i
`CC(=O)NC(Cc1ccccc1)C(=O)O` (stereo not drawn) is listed as 6%, -8%
`CC(=O)c1ccc(S(=O)(=O)NC(=O)NC2CCCCC2)cc1` is listed as -10%, -12%

Of the compounds above, these have a COOH group:
SMILES	VACV Venus inh	VACV mCherry inh
CCC(C)[C@@H](N)C(=O)O (stereo partly drawn)	-10%	-3%
C=CC1=C(C(=O)O)N2C(=O)[C@@H](NC(=O)/C(=N\O)c3csc(N)n3)[C@H]2SC1 (stereo in doubt)	-15%&-1%	0%
CC(=O)Nc1ccc(C(=O)O)cc1	-4%	-10%
CC(=O)NC(Cc1ccccc1)C(=O)O (stereo not drawn)	6%	-8%

Remaining list, next part:
SMILES	VACV Venus inh	VACV mCherry inh
COc1ccc(CC(=O)NCC(c2cccs2)S(=O)(=O)c2ccc(Cl)cc2)cc1 (stereo not drawn)	-5%[7.34 µM]	-5%[7.34 µM]
Cc1cc(CC(C)CC(C)(C)C)n(O)c(=O)c1 (stereo not drawn)	?	1µM*
CN(C)CCOC(C)(c1ccccc1)c1ccccn1 (stereo not drawn)	-19%&-7%	-3%&-12%
CCN(CC)CCNC(=O)c1cc(Cl)c(N)cc1OC	-11%&-8%	-12%
CC(C(=O)O)c1ccc(C(=O)c2cccs2)cc1 (stereo not drawn)	-7%&-9%	0%
OCCN1CCN(CCCN2c3ccccc3Sc3ccc(Cl)cc32)CC1	?	?
Cc1c(NC(=O)c2cccnc2)c(=O)n(-c2ccccc2)n1C	-15%&-15%	-11%&-22%
O=C(CCNNC(=O)c1ccncc1)NCc1ccccc1	-10%	-13%
CCCNC(C)C(=O)Nc1c(C)csc1C(=O)OC (stereo not drawn)	-7%	-8%
COc1cc(C(c2c(C)[nH][nH]c2=O)c2c(C)[nH][nH]c2=O)ccc1OC(=O)c1ccccc1F	9%	-8%
COc1ccc(C(=O)NCc2ccc(OCCN(C)C)cc2)cc1OC	-8%	-9%

Some of the compounds tested; the hit share may differ from the screen's.
